Bfl-1 A1 inh: inhibitors of the anti-apoptotic protein A1, read as caspase activation | MEF A1-2A-BIM cells, Caspase-Glo 3/7 luminescence, 3 h; percent of clofoctol response, vehicle zero | AID 2462 | 0.066% of 330,000 active | caspase activation, % (no concentration beside the values);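 active = over half of replicate activation scores above 10%, or exactly half above 10 with the replicate mean above 10; inconclusive = replicate mean below 10 yet half the replicates above 10; inactive = over half of replicates below 10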;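 note: wells of about 30 µL received 50 nL stock; many hits fall short of the cut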
Calb FLC: C. albicans growth modulation with fluconazole | 0.57% of 300,000 active | C. albicans CaCi-2 (fluconazole-resistant clinical isolate) + fluconazole, Alamar Blue growth, 48 h | growth inhibition, % (no concentration beside the values) | AID 1979;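 active = most replicates above 75%; inconclusive = exactly half above 75%; inactive = most below 75%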;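 note: all wells also contain fluconazole at 8 µg/ml as a sub-toxic cotreatment; 0% = median of DMSO wells and 100% = median of geldanamycin control wells; wells of about 8 µL received 7.5 nL stock; the first replicate is given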
Beta apoptosis: beta cell apoptosis inhibition; INS-1E cytokine-induced death, ATP luminescence, 48 h; percent of positive-control rescue, neutral wells zero; protection from apoptosis, % (test concentration not listed); 0.8% of 300,000 active; AID 435005;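 active = all replicates at 75% or more, or half of them and the mean; inconclusive = half reach 75% but not the mean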;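 note: 0% = cytokine-treated negative control wells and 100% = positive control rescue; higher means more ATP so stronger rescue from cytokine killing; wells of about 40 µL received 100 nL stock; the first replicate is given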
T cruzi repl: T. cruzi replication inhibition; T. cruzi beta-gal in NIH3T3, luminescence, 90 h; inhibition, % (test concentration not listed); 1.4% of 300,000 active;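 active = mean inhibition across valid replicates above about 55%, limit read from the data; inconclusive = mean below that limit but half or more replicates reach it; inactive = mean below it, under half of replicates reach it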;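 note: signal also drops with host cell toxicity which is not excluded here; 0% = plate median of DMSO wells and 100% = zero luminescence signal; higher percent means less beta-gal luminescence so fewer parasites; stock transfer was 50 nL into about 50 µL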
B2AR ag: agonists of human beta-2 adrenergic receptor inducing internalization. P07550. Am2.2-beta2AR cells, FAP receptor internalization, flow cytometry; reference of the scale not given here. response, % (concentration not given with the values). 0.43% of 340,000 active. AID 504454;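 active = response above a set limit, near 3 SD of response in nonfluorescent compounds, cut at about 42% in these data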;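 note: stock transfer was 100 nL into about 11 µL; a reference agonist was the positive control; negative values mostly stem from fluorescent compounds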
Target sequence (P07550 whole entry, looked up): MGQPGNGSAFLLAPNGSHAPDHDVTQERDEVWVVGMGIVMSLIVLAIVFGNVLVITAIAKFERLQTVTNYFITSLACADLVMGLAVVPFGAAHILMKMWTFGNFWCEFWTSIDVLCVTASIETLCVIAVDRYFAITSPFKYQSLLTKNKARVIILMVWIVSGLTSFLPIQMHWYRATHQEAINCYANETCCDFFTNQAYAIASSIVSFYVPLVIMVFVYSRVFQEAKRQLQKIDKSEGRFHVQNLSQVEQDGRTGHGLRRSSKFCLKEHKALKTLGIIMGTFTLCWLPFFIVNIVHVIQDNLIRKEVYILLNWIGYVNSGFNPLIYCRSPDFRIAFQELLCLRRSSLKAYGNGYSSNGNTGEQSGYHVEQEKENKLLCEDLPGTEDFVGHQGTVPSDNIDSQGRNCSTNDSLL
LANA-H2A inh: blocks KSHV LANA binding to histone H2A/H2B; 0.6% of 320,000 active; Q9QR71; inhibition, % (concentration not given with the values); cell-free LANA-H2A/H2B peptide, fluorescence polarization; in the data active = inhibition mostly above about 10%, no sharp cut-off; inactive = mostly below about 6.7%;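 note: stock transfer was 7.5 nL into about 10 µL; 0% = median of vehicle wells and 100% = median of positive control wells; one replicate is shown; the record names a cut of 25% in any replicate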
ALR inh: inhibitors of human sulfhydryl oxidase ALR; P55789; purified ALR, DTT oxidation, H2O2 HRP-luminol luminescence; inhibition, % (concentration not given with the values); 3.8% of 290,000 active; AID 485317;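 active = mean and each replicate at 75% or more; inconclusive = only one of the two met; inactive = neither met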;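 note: stock transfer was 7.5 nL into about 7.5 µL; 0% = neutral wells and 100% = wells with inactivated enzyme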
Target sequence (P55789 whole entry, looked up): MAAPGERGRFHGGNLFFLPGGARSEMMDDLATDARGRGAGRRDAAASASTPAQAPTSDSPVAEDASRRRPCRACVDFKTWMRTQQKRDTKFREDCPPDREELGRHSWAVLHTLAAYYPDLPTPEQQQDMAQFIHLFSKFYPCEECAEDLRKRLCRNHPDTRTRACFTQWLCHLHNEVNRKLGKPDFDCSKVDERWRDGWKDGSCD
Ecoli rRNA inh: selective bacterial rRNA inhibition in E. coli. E. coli WT GFP vs humanized-ribosome RFP mutants, fluorescence, 24 h; active compounds read low; DMSO median 0, no signal -100. GFP signal change (wild-type ribosome), % (concentration not given with the values). 1.6% of 350,000 active;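 active = significant combined selectivity score with lowered wild-type GFP, culture density cut under 30%, mutant RFP and density less affected; inactive = any of these conditions unmet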; note: one replicate is shown; some compounds called inactive have numbers as strong as hits
Ecoli rRNA inh OD600: recorded beside Ecoli rRNA inh, whose call it bears; OD600 change, %; measured here: OD600 growth;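 optical density of the mix in the first replicate; 0 = DMSO median and -100 = no signal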
Ecoli rRNA inh RFP: also measured in Ecoli rRNA inh; calls as there; RFP signal change, %; measured here: RFP humanized mutant strains;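 first replicate; 0 = DMSO median and -100 = no signal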
Starred values were filed as active, the others as inactive. Only part of the results is shown. The share of hits here may be higher or lower than overall.

CCOc1ccc(C(C(=O)NCC2CCCO2)N(CCc2cccc(C)c2)C(=O)c2snc(C(N)=O)c2N)cc1 (configuration not stated) was read as Calb FLC 21, T cruzi repl 12, B2AR ag -1, Ecoli rRNA inh 2, Ecoli rRNA inh OD600 -12 and Ecoli rRNA inh RFP 5.0.
Screening CCC/C=N/NC(=O)c1ccccc1O returned Bfl-1 A1 inh 0.8, Calb FLC 10, Beta apoptosis 2, T cruzi repl -5, B2AR ag 9, LANA-H2A inh 4.3, ALR inh 1, Ecoli rRNA inh 4, Ecoli rRNA inh OD600 5 and Ecoli rRNA inh RFP -4.3.
For CCCSc1nnc(-c2cnn(-c3ccccc3)c2-n2cccc2)n1C the results were Bfl-1 A1 inh 0.1, Calb FLC -7, Beta apoptosis 7, T cruzi repl 11, B2AR ag -4 and LANA-H2A inh 0.8.
For NS(=O)(=O)c1ccc(N2N=C(c3ccccc3)CC2c2cccc(F)c2)cc1 (configuration not stated) the results were Bfl-1 A1 inh 0.2, Calb FLC 9, Beta apoptosis 7, T cruzi repl 20, B2AR ag 3, LANA-H2A inh -6.0, ALR inh -8, Ecoli rRNA inh -36, Ecoli rRNA inh OD600 -55 and Ecoli rRNA inh RFP 6.6.
Screening O=C(COC(=O)/C=C/c1ccc(S(=O)(=O)N2CCc3ccccc32)cc1)NC1CCS(=O)(=O)C1 (configuration not stated) returned Bfl-1 A1 inh -0.1, Calb FLC 13, T cruzi repl 14, B2AR ag 0, LANA-H2A inh -0.4, ALR inh -1, Ecoli rRNA inh -22, Ecoli rRNA inh OD600 -30 and Ecoli rRNA inh RFP -3.0.
CC(C)N(C(=O)CSc1ccc(S(=O)(=O)N2CCCCC2)cn1)C(C)C was read as Bfl-1 A1 inh 3.8, Beta apoptosis 0, B2AR ag 5, LANA-H2A inh -0.3, ALR inh -22, Ecoli rRNA inh -8, Ecoli rRNA inh OD600 -5 and Ecoli rRNA inh RFP 0.1.
NC(=O)c1cc(NC(=O)CCc2nc3ccccc3s2)cc(C(N)=O)c1 was read as Bfl-1 A1 inh -0.3, Calb FLC -5, Beta apoptosis -7, T cruzi repl -5, B2AR ag 6, LANA-H2A inh 4.0, Ecoli rRNA inh 12, Ecoli rRNA inh OD600 15 and Ecoli rRNA inh RFP 2.2.
COc1cc(C2SCC(=O)N2c2nnc(C34CC5CC(CC(C5)C3)C4)s2)cc(OC)c1OC (configuration not stated) was read as Bfl-1 A1 inh 0.2, Calb FLC 0, Beta apoptosis 2, T cruzi repl 43, B2AR ag 0, LANA-H2A inh 1.6 and ALR inh -3.
Screening Fc1ccc(/C=N/Nc2nc(-c3cccnc3)nc3ccccc23)cc1 returned Bfl-1 A1 inh -7.4, Calb FLC -1, Beta apoptosis 12, T cruzi repl 15, B2AR ag 9, LANA-H2A inh -1.0, ALR inh 8, Ecoli rRNA inh 6, Ecoli rRNA inh OD600 13 and Ecoli rRNA inh RFP 8.5.
`O=C(Cc1cccc2ccccc12)NCCC1=CCCCC1` gave Bfl-1 A1 inh -0.5, Calb FLC 2, Beta apoptosis -7, T cruzi repl -1, B2AR ag -2, LANA-H2A inh -1.5 and ALR inh -8.
Screening O=C1/C(=C\c2ccc(C(F)(F)F)cc2)CSc2sccc21 returned Bfl-1 A1 inh 0.4, Calb FLC 2, Beta apoptosis -18, T cruzi repl 11, B2AR ag -4, LANA-H2A inh 0.9, ALR inh -4, Ecoli rRNA inh -35, Ecoli rRNA inh OD600 -64 and Ecoli rRNA inh RFP -6.5.
Screening Cc1ccc(S(=O)(=O)N2CCC(NC(=O)c3cccc(C)c3)CC2)cc1 returned Bfl-1 A1 inh 0.1, Calb FLC 15, Beta apoptosis -3, T cruzi repl -17, B2AR ag 0, LANA-H2A inh 2.5, ALR inh -7, Ecoli rRNA inh 11, Ecoli rRNA inh OD600 7 and Ecoli rRNA inh RFP -4.4.
Cc1ccc(C)n1C(CC(=O)O)c1ccc(C#N)cc1 (configuration not stated) was read as Bfl-1 A1 inh -0.4, Calb FLC 32, T cruzi repl -5, B2AR ag -3, LANA-H2A inh -4.9, ALR inh inconclusive, Ecoli rRNA inh 18, Ecoli rRNA inh OD600 14 and Ecoli rRNA inh RFP 2.1.
CCN1C(=O)C2(C(C(=O)c3cc4ccccc4o3)=C(O)C(=O)N2CCCN(C)C)c2ccccc21 (configuration not stated) was read as Bfl-1 A1 inh 0.6, Calb FLC -2, Beta apoptosis -3, T cruzi repl 10 and LANA-H2A inh 3.3.
Screening CCOc1cc(/C=N/NC(=O)COc2ccccc2C)ccc1OC(=O)c1cccs1 returned Bfl-1 A1 inh 1.1, Calb FLC 10, Beta apoptosis 5, T cruzi repl 6, B2AR ag 11, LANA-H2A inh 4.2 and ALR inh -19.
`CCOCCCNC(=O)c1cc(-c2cccnc2)nc2ccc(S(=O)(=O)N3CCC(C)CC3)cc12` gave Bfl-1 A1 inh -0.2, Calb FLC 3, Beta apoptosis -3, T cruzi repl 22, B2AR ag 59*, LANA-H2A inh -2.2, ALR inh -12, Ecoli rRNA inh 4, Ecoli rRNA inh OD600 11 and Ecoli rRNA inh RFP 1.4.
`Cc1c(S(=O)(=O)NCc2ccccc2)c(=O)n(C)c(=O)n1C` gave Bfl-1 A1 inh -0.1, Calb FLC 17, Beta apoptosis -2, T cruzi repl -14, B2AR ag -4, LANA-H2A inh -0.4, ALR inh -5, Ecoli rRNA inh 8, Ecoli rRNA inh OD600 9 and Ecoli rRNA inh RFP -0.7.
Screening CC1CCC(N2CCN(c3ccc([N+](=O)[O-])cc3)CC2)CC1 (configuration not stated) returned Bfl-1 A1 inh 1.0, Calb FLC -15, Beta apoptosis -1, T cruzi repl 11, B2AR ag -6, LANA-H2A inh 1.3, ALR inh -3, Ecoli rRNA inh 1, Ecoli rRNA inh OD600 -6 and Ecoli rRNA inh RFP -2.8.
`CC(c1nnc(SCC(=O)Nc2cccnc2Cl)n1Cc1ccccc1)N(C)C` (configuration not stated) gave Bfl-1 A1 inh -0.5, Calb FLC 10, Beta apoptosis -2, T cruzi repl -3, B2AR ag -3, LANA-H2A inh 5.7, ALR inh 87*, Ecoli rRNA inh 6, Ecoli rRNA inh OD600 1 and Ecoli rRNA inh RFP 2.7.
Screening O=C(NCc1ccco1)c1cc([N+](=O)[O-])cc([N+](=O)[O-])c1 returned Bfl-1 A1 inh -0.7, Calb FLC -4, Beta apoptosis -8, T cruzi repl 47, B2AR ag -6, LANA-H2A inh -2.6 and ALR inh -22.
CN(C)C(CNC(=O)c1ccc2ccccc2c1)c1ccco1 (configuration not stated) was read as Bfl-1 A1 inh 0.2, Calb FLC 22, Beta apoptosis -9, T cruzi repl 3, B2AR ag -1, LANA-H2A inh 1.7, ALR inh 63, Ecoli rRNA inh 0, Ecoli rRNA inh OD600 -1 and Ecoli rRNA inh RFP 1.8.
Screening CN(Cc1ccc(Cl)cc1)C(=O)CNC(=O)C12CC3CC(CC(C3)C1)C2 returned Bfl-1 A1 inh 0.3, Beta apoptosis -4, B2AR ag -12, LANA-H2A inh 8.8 and ALR inh -22.
Screening c1cc(CNC2C3CC4CC(C3)CC2C4)ccn1 (configuration not stated) returned Bfl-1 A1 inh 0.0, Calb FLC 20, Beta apoptosis -4, T cruzi repl 2, B2AR ag -2, LANA-H2A inh -2.7, ALR inh -5, Ecoli rRNA inh 7, Ecoli rRNA inh OD600 2 and Ecoli rRNA inh RFP -1.3.
`O=C(COC(=O)c1cccc(S(=O)(=O)NCc2ccccc2)c1)c1ccccc1` gave Bfl-1 A1 inh -0.6, Calb FLC 4, Beta apoptosis -2, T cruzi repl 0 and B2AR ag 10.
`COc1ccc(CCN2CNc3c(c(=O)n(C)c(=O)n3C)C2)cc1` gave Bfl-1 A1 inh 0.1, Calb FLC -3, Beta apoptosis 1, T cruzi repl 1, B2AR ag 4, LANA-H2A inh 4.8 and ALR inh 1.
COc1cccc2c(=O)n(CC(=O)N3CCCc4ccccc43)ccc12 was read as Bfl-1 A1 inh 0.4, Calb FLC 4, Beta apoptosis 7, T cruzi repl 7, B2AR ag -3, LANA-H2A inh -2.1, Ecoli rRNA inh 0, Ecoli rRNA inh OD600 -11 and Ecoli rRNA inh RFP -3.6.
For Cn1c(=O)c2c(ncn2CC(=O)NC2CCCCC2)n(C)c1=O the results were Bfl-1 A1 inh 0.4, Calb FLC -4, Beta apoptosis 2, T cruzi repl 0, B2AR ag -6, LANA-H2A inh -4.3, ALR inh -1, Ecoli rRNA inh 5, Ecoli rRNA inh OD600 15 and Ecoli rRNA inh RFP -2.3.
For Cc1onc(-c2ccccc2)c1C(=O)NC(=S)Nc1sc2c(c1C#N)CCCC2 the results were Bfl-1 A1 inh -1.1, Calb FLC inconclusive, Beta apoptosis 7, T cruzi repl -1, B2AR ag 7, LANA-H2A inh 2.7, ALR inh 3, Ecoli rRNA inh -7, Ecoli rRNA inh OD600 -1 and Ecoli rRNA inh RFP -0.3.
`COc1cc(C(=O)NCC(=O)N/N=C/c2ccc(-c3cccc([N+](=O)[O-])c3)o2)cc(OC)c1OC` gave Bfl-1 A1 inh 0.5, Calb FLC 2, Beta apoptosis 2, T cruzi repl 9, B2AR ag 8, LANA-H2A inh 4.0, Ecoli rRNA inh -10, Ecoli rRNA inh OD600 2 and Ecoli rRNA inh RFP 3.3.
COc1ccc(-c2ccc(NS(=O)(=O)c3ccc([N+](=O)[O-])cc3)cc2)nn1 was read as Bfl-1 A1 inh 0.0, Calb FLC -12, T cruzi repl 48, B2AR ag 6, LANA-H2A inh -2.1, ALR inh -17, Ecoli rRNA inh -7, Ecoli rRNA inh OD600 -9 and Ecoli rRNA inh RFP 0.0.
COc1cc(/C=N/NC(=O)CNC(=O)c2ccncc2)ccc1OC(C)=O was read as Bfl-1 A1 inh 0.8, Calb FLC 0, Beta apoptosis -1, T cruzi repl -4, B2AR ag 8, LANA-H2A inh -1.6, ALR inh 41, Ecoli rRNA inh 7, Ecoli rRNA inh OD600 12 and Ecoli rRNA inh RFP -0.7.
C[C@H]([C@@H](N)C(=O)N[C@@H](C(=O)O)[C@@H]1O[C@H](n2ccc(=O)[nH]c2=O)[C@@H](O)[C@H]1O)[C@@H](O)c1ccc(O)cn1 was read as Bfl-1 A1 inh 0.0, T cruzi repl -6, B2AR ag -6, LANA-H2A inh -1.5, ALR inh -2, Ecoli rRNA inh 3, Ecoli rRNA inh OD600 9 and Ecoli rRNA inh RFP 1.9.
Screening Cc1cc(NC(=O)c2ccccc2)n(C)n1 returned Bfl-1 A1 inh -0.2, Calb FLC 2, Beta apoptosis -4, T cruzi repl -4, B2AR ag -8, LANA-H2A inh 1.8, ALR inh -6, Ecoli rRNA inh 10, Ecoli rRNA inh OD600 10 and Ecoli rRNA inh RFP -0.1.
Screening Cc1cc(Br)ccc1NC(=O)c1ccco1 returned Bfl-1 A1 inh -1.0, Calb FLC 2, Beta apoptosis 0, T cruzi repl -11, B2AR ag 4, LANA-H2A inh 2.3, Ecoli rRNA inh -22*, Ecoli rRNA inh OD600 -1.6* and Ecoli rRNA inh RFP -3.3*.
For CCC(CC)NC(=O)c1cc(OC)c(OC)c(OC)c1 the results were Bfl-1 A1 inh -0.1, Calb FLC -2, Beta apoptosis 3, T cruzi repl -12, B2AR ag 3, LANA-H2A inh -2.3 and ALR inh 1.

High-throughput results (PubChem)
